Bioassay records as filed in PubChem.
Hsc70 ATP site: Hsc70 inhibitors, probe displacement, primary screen, biochemical, fluorescence polarization (AID 568); Hsc70 fluorescence polarization, probe displacement; higher % means a stronger effect; strong numbers were not always called active; displacement, % at 20 µM; hits with a dose series show IC50 in µM; 83,000 tested, under 10 active;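 active = displacement above 50% without optical interference and an IC50 on retest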;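 note: ATPase domain with a fluorescein-tagged ATP probe; 0% = vehicle and 100% = excess ADP; read after one hour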
MT1-MMP promoter: MT1-MMP gene expression reporter suppression – cell-based, luciferase reporter, luminescence (AID 618). MT1-MMP promoter luciferase reporter cells, luminescence. calls from a first round at 10 µM; hits with a dose series show EC50 in µM. hit rate 0.62% among 87,000;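 active = over half of the reporter light lost at 10 µM or EC50 under 50 µM; inactive = the rest and hits that failed the dose series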;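 note: actives suppress MT1-MMP promoter-driven transcription so potencies describe inhibitors; HT1080 fibrosarcoma cells; overnight exposure; toxic or luciferase-blocking compounds were not removed from the actives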
WNV protease inh: inhibitors of West Nile virus NS2B-NS3 protease; WNV NS2B-NS3 protease, fluorogenic substrate Ex360/Em465; active compounds read low; z-score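 (tested at a level between 10 and 100 µM)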; hit rate 0.18% among 65,000; AID 577;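 active = z-score at -3 or under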;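 note: score is relative to mean and spread of the compound wells of a plate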
Target sequence (P06935 1371-1501 limits assumed): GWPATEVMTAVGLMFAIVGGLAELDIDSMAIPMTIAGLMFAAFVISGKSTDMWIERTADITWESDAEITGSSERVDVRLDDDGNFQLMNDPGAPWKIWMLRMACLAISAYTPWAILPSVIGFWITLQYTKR
Target sequence (P06935 1502-1679 limits assumed): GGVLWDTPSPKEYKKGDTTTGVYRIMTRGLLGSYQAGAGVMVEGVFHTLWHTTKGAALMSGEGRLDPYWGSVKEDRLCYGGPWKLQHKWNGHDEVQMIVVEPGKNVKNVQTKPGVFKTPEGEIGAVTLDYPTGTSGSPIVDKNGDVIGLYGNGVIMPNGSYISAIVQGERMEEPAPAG
Active calls of the source: *; i = inactive; . = not tested or not shown. Not all compounds are listed; the hit share may differ from the screen's.

Preview, six compounds:
Structure	Hsc70 ATP site	MT1-MMP promoter	WNV protease inh
O=C(c1ccco1)N1CCN(c2ncnc3sc4c(c23)CCC4)CC1	-2.3%	i	0.12
CCN(CC)c1ccc2c(C)c(-c3ccc(N)cc3)c(=O)oc2c1	-9.3%	i	-0.38
COC(=O)c1ccc(/C=N/OCC(=O)NC2CCCC(C)C2C)cc1 (stereo not given)	1.6%	i	.
Cc1nc2sc(C(c3ccco3)N3CCC4(CC3)OCCO4)c(O)n2n1 (stereo not given)	-0.1%	i	0.88
COc1ccc2c(=O)c3c(=O)n(Cc4ccco4)c(C(C)C)nc3oc2c1	-11%	i	-0.13
Cc1cccc(N(CC(=O)N=Nc2c(O)[nH]c3ccccc23)S(C)(=O)=O)c1C	-3.3%	i	.

The whole of this part, from the first entry:
Structure	Hsc70 ATP site	MT1-MMP promoter	WNV protease inh
O=C(c1ccco1)N1CCN(c2ncnc3sc4c(c23)CCC4)CC1	-2.3%	i	0.12
CCN(CC)c1ccc2c(C)c(-c3ccc(N)cc3)c(=O)oc2c1	-9.3%	i	-0.38
COC(=O)c1ccc(/C=N/OCC(=O)NC2CCCC(C)C2C)cc1 (stereo not given)	1.6%	i	.
Cc1nc2sc(C(c3ccco3)N3CCC4(CC3)OCCO4)c(O)n2n1 (stereo not given)	-0.1%	i	0.88
COc1ccc2c(=O)c3c(=O)n(Cc4ccco4)c(C(C)C)nc3oc2c1	-11%	i	-0.13
Cc1cccc(N(CC(=O)N=Nc2c(O)[nH]c3ccccc23)S(C)(=O)=O)c1C	-3.3%	i	.
O=C(NCCc1ccc(Cl)cc1)C1CC(=O)N(C2CCCCC2)C1 (stereo not given)	-4.2%	i	-0.42
O=C(O)CCCCCNS(=O)(=O)c1c(Cl)cccc1Cl	-3.7%	i	-0.78
COCCCN1C(=O)c2ccc(C(=O)Nc3ccc(OC)cc3)cc2C1=O	3.6%	i	.
Cc1cccc(-n2nnnc2SCn2nnc3ccccc3c2=O)c1	-3.4%	i	-0.34
CCCc1ccc(C(=O)CCC(=O)O)cc1	-3.0%	i	-0.11
CC(=O)n1c2ccccc2c2nc(NC(C)C)sc21	5.4%	i	-1.1
Cc1nc2c(C(=O)NCCc3ccccc3)c[nH]n2c(=O)c1Cl	2.7%	i	1.8
CC(=O)NS(=O)(=O)c1ccc(NS(=O)(=O)c2ccc(F)cc2)cc1	-5.5%	i	0.53
CCOC(=O)N1CCN(C(=O)CN(c2ccc(C)cc2)S(=O)(=O)c2c(C)noc2C)CC1	4.0%	i	1.3
O=S(=O)(NCc1csc(-c2ccccc2)n1)c1ccc(Cl)s1	4.2%	i	-0.93
COc1ccc(NC(=O)C(c2ccc(OC)cc2)N(C)C(=O)CNC(C)=O)cc1 (stereo not given)	4.2%	i	1.9
O=C(c1c(F)c(F)c(F)c(F)c1F)N1CCN(c2cccc(C(F)(F)F)c2)CC1	-11%	i	0.15
O=C(NCc1ccco1)C1CCC(N2C(=O)c3ccccc3C2=O)CC1 (stereo not given)	-1.1%	i	-0.32
O=C(Nc1ccc(F)cc1)N1CCC(c2nc3c(nnn3Cc3cccc(Cl)c3)c(=O)[nH]2)CC1	4.1%	i	-0.79
O=C(CSc1nnnn1-c1cccc(F)c1)Nc1nc2ccccc2s1	-7.3%	i	.
COc1ccc(N2CCN(c3oc(-c4ccccc4OC)nc3C#N)CC2)cc1	-5.1%	i	-0.46
COc1ccc(NC(=O)CCn2nnc(-c3ccc(C)cc3)n2)cc1OC	-1.2%	i	.
COc1ccc(NC(=O)CN2c3cccc4cccc(c34)S2(=O)=O)cc1	-8.2%	i	-0.35
CC12CCCCC1c1ccccc1C(=NCC(=O)O)N2 (stereo not given)	-0.3%	i	0.08
NC(=O)CCCCC(=O)OCCCc1cccs1	0.8%	i	-0.11
O=C1c2ccccc2C(=O)N1CSc1nnnn1-c1ccccc1	0.0%	i	-0.46
Cn1cccc1Cc1nnc(SCC(=O)Nc2ccc3c(c2)OCCO3)n1CCc1ccccc1	2.3%	i	-0.18
N#CCSc1ncccc1-c1nc2ccccc2[nH]1	0.7%	i	.
COc1ccc(NC(=O)C2CCCN(S(=O)(=O)c3cccc4cccnc34)C2)cc1 (stereo not given)	0.7%	i	0.63
CC(=O)NCCn1c(SCc2ccccc2F)nc2ccccc2c1=O	1.2%	i	1.3
Cc1ccc(-n2nnnc2-c2cnn(-c3ccc(F)cc3)c2C(F)(F)F)cc1	-2.3%	i	.
Cc1ccc(OC(=S)Nc2ccc(O)cc2)cc1	-0.6%	i	.
Cc1ccc(NC(=O)C2CCCN2C(=O)Oc2ccccc2)cc1C (stereo not given)	1.2%	i	.
O=C(O)Cn1cc2c(n1)CCCC2	-10%	i	-0.63
CCn1c(CNc2ccc(Cl)cc2)nnc1SCc1ccc(C)cc1	0.4%	i	.
COC(=O)Cn1c(CN2CCC(Cc3ccccc3)CC2)nc2c1c(=O)n(C)c(=O)n2C	0.2%	i	-0.91
CCOC(=O)CSc1nnc(CNC(=O)c2cccs2)n1-c1cccc(C)c1	-8.2%	i	0.35
CC1(C)CC(CCNC(=O)c2ccc(-n3cnnn3)cc2)CC(C)(C)N1	4.1%	i	0.0021
CCOC(=O)Cn1c(=O)c2c(nc3n2CCCCN3c2ccc(C)cc2)n(C)c1=O	3.2%	i	1.5
Cc1noc(/C=C/c2ccco2)c1S(=O)(=O)N1CCC(C(=O)NCc2ccco2)CC1	-3.7%	i	-1.7
COc1ccc(N2CCN(C(=O)CCNS(=O)(=O)c3cccs3)CC2)cc1	5.3%	i	.
COC(=O)CCc1c(C)c(C#N)c2nc3ccccc3n2c1N1CCCC1	2.4%	i	-0.15
CCCCn1c(CCNC(=O)CC)nc2ccccc21	-2.2%	i	0.78
Cc1cc2c(C)nc(-c3ccccc3)nc2o1	4.0%	i	1.1
OCCCCNc1cccc2ccccc12	8.2%	i	-0.8
CCOC(=O)C1=C(CN2CCN(c3ccc(F)cc3)CC2)NC(=O)NC1c1cccs1 (stereo not given)	-2.2%	i	-0.28
O=C(O)C1CCCCC1C(=O)Nc1ccc2c(c1)OCCO2 (stereo not given)	5.3%	i	-0.29
COc1ccc2oc(C)c(C(N)=O)c2c1	-4.2%	i	0.2
CCOC(=O)C1=C(N)N2C(=O)C(C)SC2=C(C(=O)OC)C1c1ccccc1OC (stereo not given)	1.8%	i	0.27
COc1ccccc1C(=O)N(CN1CCCC1=O)c1cccc(Cl)c1	-6.7%	i	-0.76
CCn1c(C(=O)N2CCC(Cc3ccccc3)CC2)cc2sccc21	-4.6%	i	-0.51
S=c1[nH]nc(-c2cccnc2)n1-c1ccccc1	-0.2%	i	.
CCOC(=O)C1=C(C)NC2=C(C(=O)CC(C)(C)C2)C1c1ccsc1 (stereo not given)	-7.2%	i	.
CCOC(=O)C1=C(C)N(C)C(=O)NC1c1ccc(C)s1 (stereo not given)	-2.0%	i	0.29
O=c1cc(CSc2nnc(COc3ccccc3Cl)o2)nc2sccn12	-1.1%	i	-0.66
CCC(CC)C(=O)Nc1cc(C(=O)OC)cc(C(=O)OC)c1	-3.2%	i	-0.4
COc1ccc(CCNC(=O)CC2Nc3ccccc3NC2=O)cc1 (stereo not given)	-6.2%	i	-0.52
CCC1(C)Cc2c(sc3c2c(=O)n(C)c2nnc(SCCc4ccccc4)n32)CO1 (stereo not given)	5.1%	i	-1.2
COc1cc(C)c(S(=O)(=O)Nc2ccc(CC(=O)O)cc2)cc1C	-2.3%	i	-0.28

(cont.)
Structure	Hsc70 ATP site	MT1-MMP promoter	WNV protease inh
CC(=O)N1CCc2cc(S(=O)(=O)NC(CC(C)C)C(=O)N3CCn4c3nc3ccccc34)ccc21 (stereo not given)	7.6%	i	-0.33
CC1CN(c2oc(-c3ccccc3Cl)nc2C#N)CC(C)O1 (stereo not given)	6.3%	i	-0.43
Cc1ccc(CNC(=O)C2CCN(S(=O)(=O)c3cccs3)CC2)o1	-3.9%	i	-0.23
C=CCN(CCNP(=O)(OCC)OCC)CP(=O)(OCC)OCC	-2.2%	i	.
CCCCN(CC)C(=O)CN(C)S(=O)(=O)c1cccc2nsnc12	-3.3%	i	1.7
CC(C)(C)NC(=O)C(c1ccccc1)N(Cc1ccco1)C(=O)c1csnn1 (stereo not given)	3.2%	i	1.7
O=C(Nc1ccc2c(c1)OCCO2)C1CCN(c2cnccn2)CC1	0.3%	i	-0.66
CCOc1cc2nc(-c3ccc(OC)c(OC)c3)nc(N3CCOCC3)c2cc1OC	0.6%	i	1.1
c1ccc(-c2csc3nnc(SCc4ccc5c(c4)OCCO5)n23)cc1	4.2%	i	0.6
c1ccc(OCc2nn3c(-c4ccccn4)nnc3s2)cc1	5.7%	i	2.5
COc1ccc(-c2cc(CCCC(=O)NCc3ccccn3)no2)cc1	-1.8%	i	1.7
CCc1ccc(CNc2ccc(N3CCN(C(C)=O)CC3)cc2)cc1	6.0%	i	-1.3
CCS(=O)(=O)N1CCCC(C(=O)NCc2ccc3c(c2)OCO3)C1 (stereo not given)	1.5%	i	0.08
CCC(=O)NC(c1ccccc1)c1nc2ccccc2[nH]1 (stereo not given)	-6.2%	i	-0.95
COc1cc(C(=O)O)nc2ccccc12	0.9%	i	1.6

Whole records, quoted from the list. Order of values: Hsc70 ATP site | MT1-MMP promoter | WNV protease inh
CC(=O)N1CCc2cc(S(=O)(=O)NC(CC(C)C)C(=O)N3CCn4c3nc3ccccc34)ccc21 (stereo not given) as listed: 7.6% | i | -0.33
CCC(=O)NC(c1ccccc1)c1nc2ccccc2[nH]1 (stereo not given) as listed: -6.2% | i | -0.95

(listing goes on)
Structure	Hsc70 ATP site	MT1-MMP promoter	WNV protease inh
Cn1c(=O)oc2cc(S(=O)(=O)NCCC(=O)N3CC=C(c4ccccc4)CC3)ccc21	-9.5%	i	-0.7
Cc1oc(-c2ccc(Cl)cc2)nc1CSCC(=O)NCCCN1CCOCC1	5.6%	i	-0.35
Cc1ccc(OCC(=O)Nc2ccc(-c3nc4ncccc4o3)cc2)cc1	0.9%	i	0.86
CCOC(=O)c1cnc(SCC(C)C)nc1N	-0.5%	i	.
COc1ccccc1OCCc1nnc(N)s1	-3.4%	i	.
CCOC(=O)c1sc(NC(=O)c2ccc(CC)s2)nc1C	2.1%	i	-0.51
O=C(Cn1cc2c(n1)CCCCC2)NCc1ccccc1	1.5%	i	-0.64
CNC(=O)c1[nH]cnc1C(=O)Nc1ccccc1OC	1.3%	i	.
COc1ccc(-c2c3c(=O)n(C)c(=O)n(C)c3cn2Cc2cccnc2)cc1	-0.6%	i	-0.45
O=C(O)CC(c1ccccc1)c1ccccc1	-12%	i	0.78
CCC(=O)Nc1ccc(S(=O)(=O)N2CCCCC2)cc1OC	2.3%	i	.
CCNc1nc(Oc2ccc(=O)[nH]n2)nc(N2CCOCC2)n1	-1.8%	i	.
CCCS(=O)(=O)N1CCC(C(=O)N2CCN(C(=O)OCC)CC2)CC1	-4.0%	i	-0.21
O=S(=O)(c1ccccc1)N1CCN(Cc2ccccc2C(F)(F)F)CC1	-4.6%	i	0.01
CCSc1nc(O)c(C2OC(=O)c3c2ccc(OC)c3OC)c(=O)n1CC (stereo not given)	1.1%	i	0.2
Cc1cc(C)n(-c2nc3c(c(=O)[nH]c(=O)n3C)n2CC(O)c2ccccc2)n1 (stereo not given)	-0.2%	i	-0.81
CC(=O)Nc1nnc(SCc2ccccc2F)s1	2.6%	i	.
CCn1c(SCC(=O)NC2CCCCC2)nnc1-c1cccs1	-1.0%	i	-1.1
CC(C)N1C(=O)c2ccccc2C1C(=O)NC1CCCCCC1 (stereo not given)	2.4%	i	-0.08
COc1ccc(C(c2nnnn2Cc2ccccc2)N2CCN(c3ccccc3)CC2)cc1 (stereo not given)	-1.6%	i	-0.04
Cc1occc1-c1nnc(SCC(=O)Nc2ccccc2)n1CCc1ccccc1	-6.7%	i	1.4
CC(C)n1c(SCC(=O)N2CCCC2)nc2c1c(=O)n(C)c(=O)n2C	-3.6%	i	-0.98
CCc1c(C)sc(NC(=O)CC#N)c1C#N	-9.2%	i	0.2
COc1cccc(C(=O)Nc2ncc3c(n2)CC(C)(C)CC3=O)c1	-2.5%	i	-0.13
CCCNC(=S)NCCN1CCCCC1	4.4%	i	.
Cc1oc(-c2ccc(Cl)cc2)nc1CN1CCC(C(=O)N2CCN(Cc3ccccc3)CC2)CC1	2.5%	i	-1.9
CN1CCc2c(sc3c2C(=O)NC(c2ccc(-c4cccc(Cl)c4)o2)N3)C1 (stereo not given)	-18%	i	1.2
O=C(c1ccc2c(c1)OCO2)N1CCCC1	0.8%	i	.
O=S(=O)(NCc1cccs1)c1cccc(S(=O)(=O)N2CCCCC2)c1	-0.7%	i	-0.35
CCN1CCN(C(=S)c2ccc(Cl)c(Cl)c2)CC1	-1.8%	i	.
COc1cccc(NS(=O)(=O)c2ccc3[nH]cc(C(=O)NCCN4CCOCC4)c(=O)c3c2)c1	0.1%	i	0.11
